SARS PLpro yeast: SARS-CoV PLP inhibition in yeast; S. cerevisiae expressing SARS-CoV PLpro, growth rescue; control for the full effect not named in the record; Potency, µM (series often up to 32.9 µM), for inactives: top-dose activity, positive = growth rescue; 0.19% of 330,000 active; AID 485353; further: 0% is about no effect; nearly all actives have a fitted effect of over 55% in size; growth read by luminescence after 48 h
Cruzain inh Det: cruzain (T. cruzi) inhibition with detergent | purified cruzain, Z-FR-AMC fluorescence, 0.01% Triton | Potency, µM, for the others: max response, negative = inhibition, most hits filed as inhibitors | 0.43% of 200,000 active | AID 1478; active means well fitted curve in the direction sought with a large enough effect; inconclusive means small, poorly fitted or top-dose-only effect, or another doubt; inactive means no such curve, though single readings can be large; an effect the other way counts as inactive or inconclusive;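 further: plate controls were neutral wells for no effect and buffer without enzyme for full effect; nearly all actives have a fitted effect of over 40% in size; top concentration of the series not given in the record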
Target sequence (P25779 123-467 limits assumed): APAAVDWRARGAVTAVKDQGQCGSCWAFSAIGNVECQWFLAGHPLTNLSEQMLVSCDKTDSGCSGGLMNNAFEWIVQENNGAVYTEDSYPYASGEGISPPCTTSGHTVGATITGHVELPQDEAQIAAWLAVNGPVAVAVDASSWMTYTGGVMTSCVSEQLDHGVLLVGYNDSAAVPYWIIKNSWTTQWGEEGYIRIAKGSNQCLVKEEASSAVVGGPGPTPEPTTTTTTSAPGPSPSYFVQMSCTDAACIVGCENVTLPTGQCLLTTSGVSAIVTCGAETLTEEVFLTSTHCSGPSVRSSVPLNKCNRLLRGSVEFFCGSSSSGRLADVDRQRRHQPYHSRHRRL
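Enzyme 1.5 nM, Z-FR-AMC 2 uM, NaOAc 100 mM pH 5.5, DTT 5 mM, Triton X-100 0.01%; 15 min RT compound preincubation; kinetic ex360/em450, 60 s delta.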
NS1 inh: inhibitors of influenza NS1 protein function; AID 2326; S. cerevisiae slowed by influenza A NS1, growth recovery by OD600; 0.4% of 270,000 active; Potency, µM (highest dose often 46.1 µM), without a hit: at the top dose activity, positive = more growth; further: actives are rising curves; nearly all actives have a fitted effect of over 50% in size
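In this qHTS, NS1 from influenza A is expressed in budding yeast, where it slows growth. Cells are switched from glucose to 2% galactose medium (pH 6.0, -URA), treated with compound, and growth recovery is read at OD600.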
MARV entry inh: Marburg virus entry inhibition | Marburg virus pseudotyped entry inhibition, cell reporter; control for the full effect not named in the record; about a third of the inactives were read at about 46 µM | Potency, µM (top dose mostly 37.8 µM), without a hit: at the top dose activity change, negative = inhibition, usual class: inhibitors | AID 540276 | 1.8% of 300,000 active; active = well fitted inhibition curve with a large enough effect; inconclusive = small, poorly fitted or top-dose-only effect, or effect the other way; inactive = flat fitted curve, though single readings scatter; tested in HEK293 cells; about a fifth of its hits are not listed in these tables; further: on the % scale 0 is the no-effect control and ±100 the full control effect; luciferase read-out
Lassa entry inh: inhibitors of Lassa virus binding or cell entry; Potency, µM (highest dose often 37.9 µM), for the others: at the highest dose activity change, negative = inhibition, most hits filed as inhibitors; Lassa virus pseudotype entry inhibition, cell reporter; control for the full effect not named in the record; 1.2% of 300,000 active; active means well fitted inhibition curve with a large enough effect; inconclusive means small, poorly fitted or top-dose-only effect, or effect the other way; inactive means flat fitted curve, though single readings scatter; tested in HEK293 cells; further: on the % scale 0 is the no-effect control and ±100 the full control effect; nearly all actives have a fitted effect of over 50% in size; luciferase read-out
Cruzain noTriton: inhibitors of Trypanosoma cruzi cruzain without detergent; P25779; purified cruzain, Z-FR-AMC fluorescence, no detergent; Potency, µM, for the others: max response, negative = inhibition, hits mostly inhibitors; 2.3% of 200,000 active; active means well fitted curve in the direction sought with a large enough effect; inconclusive means small, poorly fitted or top-dose-only effect, or another doubt; inactive means no such curve, though single readings can be large; an effect the other way counts as inactive or inconclusive;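 further: plate controls were enzyme without inhibitor for no effect and buffer without enzyme for full effect; nearly all actives have a fitted effect of over 40% in size; top concentration of the series not given in the record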
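Detergent-free condition (0.00005% Triton X-100) in acetate buffer pH 5.5 with DTT. 1.5 nM enzyme and compound were pre-mixed 15 min, then 2 uM Z-FR-AMC substrate added; reaction progress from fluorescence change between first and third reads (60 s).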
RE007 growth inh: less growth of the S. pombe RE007 Vpr strain; AID 651644; Potency, µM (top dose mostly 92.2 µM), for the others: at the top dose activity change, negative = less growth; S. pombe RE007 Vpr strain, BacTiter-Glo ATP luminescence, 24 h; control for the full effect not named in the record; 0.21% of 360,000 active; active = well fitted falling curve with a large enough effect; inconclusive = small, poorly fitted or top-dose-only effect; inactive = no such curve, though single readings can be large or run the other way;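 further: on the % scale 0 is the no-effect control and ±100 the full control effect; nearly all actives have a fitted effect of over 50% in size; the assay follows cell death caused by Vpr and the record does not say whether a fall means rescue or toxicity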
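Fission yeast RE007 carrying one integrated HIV-1 vpr copy, seeded at OD 0.01 in PMG+AL medium with 23 nL pinned compound. Grown 24 h at 30 degrees; viability read by BacTiter-Glo luminescence after 5 min.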
2A StopGo: FMDV 2A StopGo reporter, luciferase signal. human cells with a luciferase reporter of 2A StopGo recoding; control for the full effect not named in the record. Potency, µM (series often up to 57.9 µM), without a hit: top-dose signal change, negative = less light. 1.2% of 410,000 active; active = well fitted falling curve with a large enough effect; inconclusive = small, poorly fitted or top-dose-only effect; inactive = no such curve, though single readings can be large or run the other way; tested in HEK293T cells; further: on the % scale 0 is the no-effect control and ±100 the full control effect; nearly all actives have a fitted effect of over 45% in size; luciferase light after 4 h
Starred values were filed as active, the others as inactive; ? = inconclusive; . = not tested or not shown; [ ] = another dose, or the depositor's remark. Unless noted, the call rests on the fitted dose curve; in most records, active means well fitted rising curve with a large enough effect; inconclusive means small, poorly fitted or top-dose-only effect; inactive means no such curve, though single readings can be large or run the other way. Potency means the concentration at half of the fitted maximal effect.

(1) CCN1C(=O)[C@@H]2C(C(=O)c3cnccn3)=NN[C@@H]2C1=O
(2) C(#Cc1ccc(C#CCN2CCOCC2)cc1)CN1CCOCC1
(3) Cc1nnsc1C(=O)NC1CCCc2c1cnn2-c1ccccc1F (stereo not drawn)
(4) O=C1CC(C(=O)Nc2ccc(Cl)cc2)S/C(=N\N=C\c2ccco2)N1 (stereo not drawn)
(5) O=[N+]([O-])c1ccc(S(=O)(=O)N2CCn3cccc3C2c2ccc(Br)cc2)cc1 (stereo not drawn)
(6) CC(C)CN(CC(C)C)C(=O)c1cccc(S(=O)(=O)N2CCc3ccccc32)c1
(7) COc1ccc(CC2(CO)CCN(S(=O)(=O)c3c(C)nn(C)c3C)CC2)cc1
(8) O=C(Cn1cc(SCc2cccc(Cl)c2)c2ccccc21)N1CCCCC1
Screen / compound no.	1	2	3	4	5	6	7	8
SARS PLpro yeast	1%	8%	3%	1%	.	3%	-1%	.
RE007 growth inh	-5%	4%	0%	-12%	.	-20%	-1%	.
2A StopGo	17%	-1%	?	-14%	?	-6%	?	21%
Cruzain noTriton	.	1%	.	.	?	.	.	-13%
NS1 inh	5%	-1%	0%	6%	.	.	-3%	.
Lassa entry inh	5%[46.1 µM]	-19%	0.5µM*	?	?	.	16%	?
MARV entry inh	16%[46.1 µM]	-1%	?	0%[46.1 µM]	.	?	-7%[46.1 µM]	.
Cruzain inh Det	.	1.3%	.	.	-2.9%	.	.	-6.0%

(9) Cc1cccc(OCC(=O)N2CCN(C(=O)c3cccs3)CC2)c1
(10) C[C@@H](N)C(=O)N[C@H]1CCC2C3CC=C4C[C@@H](O)CC[C@]4(C)C3CC[C@@]21C (stereo partly drawn)
(11) CCn1c(NC(=O)C(C)C)c(-c2ccccc2)c(=O)c2ccccc21
(12) COc1ccccc1C(=O)N/N=C/c1c[nH]c2ccccc12
(13) CCOc1cc(/C=N/O)ccc1OCc1ccc(C)cc1
(14) COc1cc(NC(=O)c2cc3nc(-c4ccccc4)cc(-c4ccccc4)n3n2)c(OC)cc1Cl
(15) O=C(O)C1C2CCC(O2)C1C(=O)Nc1ccc(Cl)cc1 (stereo not drawn)
(16) COCCNC(=O)c1cnn2c(C(F)(F)F)cc(-c3ccc(C)cc3)nc12
Screen / compound no.	9	10	11	12	13	14	15	16
SARS PLpro yeast	-2%	.	1%	0%	-14%	.	1%	1%
RE007 growth inh	-1%	-16%	26%	2%	-26%	.	-9%	-3%
2A StopGo	12%	14%	-6%	41%[activator]	28%	-16%	-2%	-11%
Cruzain noTriton	14%	.	.	.	6%	5%	.	.
NS1 inh	-12%	.	1%	-4%	-12%	.	-2%	1%
Lassa entry inh	1%	19%[46.1 µM]	.	.	3%	1%[46.1 µM]	-1%[46.1 µM]	.
MARV entry inh	11%	?	.	.	-7%	.	-1%[46.1 µM]	.
Cruzain inh Det	1.2%	.	.	.	-4.9%	-1.2%	.	.

(17) CCCCc1nc2sc3c(=O)[nH]c(=S)[nH]c3c2c2c1CCC2
(18) CC(C)C(=O)Nc1ccc(C(=O)NN2C(=O)c3ccccc3C2=O)cc1
(19) CCOC(=O)CCCNS(=O)(=O)c1c(C)ccc2nsnc12
(20) Cc1cc(C)cc(NC(=O)Cn2c(-c3cncs3)nc3ccccc32)c1
(21) O=C1C(Cl)=C(NCc2cccnc2)C(=O)c2ccccc21
(22) Cc1ccc(S(=O)(=O)N(c2ccccc2)C2CCS(=O)(=O)C2)cc1 (stereo not drawn)
(23) Cc1ccc(S(=O)(=O)NP(=O)(Oc2ccccc2)Oc2ccccc2)cc1
(24) Cc1cccc(NC(=O)CN2C(=O)C3(SCC(=O)N3c3ccccc3)c3ccccc32)c1 (stereo not drawn)
Screen / compound no.	17	18	19	20	21	22	23	24
SARS PLpro yeast	.	20%	27%	.	-9%	-1%	2%	.
RE007 growth inh	8%	-9%	1%	.	?	-14%	10%	.
2A StopGo	-9%	-14%	10%	-20%	?	-15%	.	-4%
Cruzain noTriton	.	-2%	6%	?	.	4%	?	-17%
NS1 inh	.	15%	0%	.	-6%	8%	-1%	.
Lassa entry inh	-13%	2%	-11%	-9%[46.1 µM]	?	-13%	23%	31%[46.1 µM]
MARV entry inh	2%[46.1 µM]	-3%	10%	3%[46.1 µM]	?	-1%	-8%	.
Cruzain inh Det	.	-2.3%	-2.5%	-5.9%	.	2.6%	1.8%	-5.5%

(25) Cn1cnc([N+](=O)[O-])c1Oc1ccccc1
(26) CCCCNC(=S)NNC(=O)c1cccnc1
(27) Cc1cc(C(=O)COC(=O)C(C)NC(N)=O)c(C)n1Cc1ccco1 (stereo not drawn)
(28) CCC(Sc1nc2c(c(=O)n1CC)SC(C)C2)C(=O)OC (stereo not drawn)
(29) CNC(=O)C1CCC(Cn2c(=O)c3sccc3n(Cc3ccccc3)c2=O)CC1 (stereo not drawn)
(30) COc1ccc(OC)c(/C=C/c2c([N+](=O)[O-])c(=O)n(C)c(=O)n2C)c1
(31) CCOC(=O)C1=C(c2ccccc2)NC(N)=NC1c1ccc(OCc2ccc(Cl)cc2)c(OC)c1 (stereo not drawn)
(32) CCC(C)N(CC(=O)NCc1ccc(OC)cc1)C(=O)c1csnn1 (stereo not drawn)
Screen / compound no.	25	26	27	28	29	30	31	32
SARS PLpro yeast	15%	19%	1%	-15%	.	1%	-1%	0%
RE007 growth inh	4%	11%	5%	4%	.	-6%	-2%	-2%
2A StopGo	?	36%[activator]	64%[activator]	-4%	-10%	-23%	1%	-1%
Cruzain noTriton	-10%	6%	.	-6%	0%	.	.	9%
NS1 inh	0%	7%	.	-26%	.	.	5%	-3%
Lassa entry inh	-7%	19%	-28%	.	0%[46.1 µM]	.	.	20%
MARV entry inh	?	13%	?	.	.	-29%[46.1 µM]	.	16%
Cruzain inh Det	-4.1%	0.1%	.	-7.5%	0.4%	.	.	-3.6%

(33) COc1cc2cc(C(c3nnnn3C3CCCC3)N3CCc4ccccc43)c(=O)[nH]c2cc1OC (stereo not drawn)
(34) COc1ccccc1C(CNC(=O)c1ccc(NS(=O)(=O)c2ccc(F)c(C)c2)cc1)N1CCCC1 (stereo not drawn)
(35) O=S(=O)(NCc1ccco1)c1cccc(S(=O)(=O)N2CCOCC2)c1
(36) COc1ccc(S(=O)(=O)N(CC(=O)N2CCCC2)Cc2ccccc2)cc1
(37) COc1cccc(OCC(=O)N(Cc2nc(-c3ccc(Cl)cc3)no2)C(C)C)c1
(38) O=C(N/N=C/c1ccccn1)c1cc(-c2ccc(Cl)cc2)nc2ccccc12
(39) COc1ccc(CC(=O)Nc2nc(-c3cccc([N+](=O)[O-])c3)cs2)cc1
(40) COC(=O)C1=C(C)NC(C)=C(C(=O)OC)C1C(=O)OCc1nnc(-c2ccccc2Cl)o1
Screen / compound no.	33	34	35	36	37	38	39	40
SARS PLpro yeast	3%	8%	1%	10%	-6%	-103%	13%	-4%
RE007 growth inh	7%	-7%	-2%	9%	9%	-8%	10%	11%
2A StopGo	-22%	-8%	16%	14%	-28%	?	-13%	0%
Cruzain noTriton	?	.	1%	9%	8%	1%	20µM*	.
NS1 inh	5%	.	5%	1%	?	-15%	6%	.
Lassa entry inh	.	13%[46.1 µM]	1%	-2%	.	?	?	0%
MARV entry inh	7%	?	-4%	-1%	.	?	-4%	-3%
Cruzain inh Det	-2.2%	.	1.5%	-0.6%	-4.7%	-5.0%	1.1%	.

(41) CCOc1nsc(OCC)n1
(42) CCOC(=O)c1ccc(NC(=S)N2CCCC(C(=O)N3CCCC3)C2)cc1 (stereo not drawn)
(43) COc1ccc(/C=C/C(=O)OCC(=O)NC2CCCC2)cc1OC
(44) O=C(CCc1nnc2n(Cc3ccc(F)cc3)c(=O)c3ccccc3n12)N1CCN(c2ccccn2)CC1
(45) CC(C)(C)NC(=O)NC(=O)COC(=O)c1ccco1
(46) O=C(Cn1cc([N+](=O)[O-])cn1)NCCc1c[nH]c2ccccc12
(47) Nc1ccc(C(=O)OCc2ccncc2)cc1[N+](=O)[O-]
(48) Cc1cccc(CN2C(=O)N/C(=C/c3cc(C)n(-c4ccccn4)c3C)C2=O)c1
(49) Cc1ccc(NC(=S)N2CCC(c3nc4ccccc4s3)CC2)cc1C
(50) COC(=O)N/N=C/c1cc(C)n(-c2ccc(Br)cc2)c1C
(51) N#Cc1ccc2ccn(CC(=O)NC3CCCCCC3)c2c1
Screen / compound no.	41	42	43	44	45	46	47	48	49	50	51
SARS PLpro yeast	8%	0%	-7%	0%	6%	1%	-3%	-1%	5%	-2%	3%
RE007 growth inh	9%	1%	2%	-6%	6%	21%	-4%	0%	11%	5%	4%
2A StopGo	9%	-6%	-6%	?	6%	-8%	14%	4%	.	14%	-3%
Cruzain noTriton	.	.	.	.	-6%	.	.	25µM*	2%	.	4%
NS1 inh	2%	0%	.	8%	-6%	.	.	13%	?	-5%	1%
Lassa entry inh	23%[46.1 µM]	-3%	1%	.	16%	-10%	8%[46.1 µM]	-20%	?	-29%	-1%
MARV entry inh	2%[46.1 µM]	1%	-1%	.	-22%	14%[46.1 µM]	-2%[46.1 µM]	-26%	-14%	?	?
Cruzain inh Det	.	.	.	.	4.4%	.	.	-5.5%	-1.2%	.	-4.9%

4 compounds already listed, sorted by heavy-atom count, rising:
(50) COC(=O)N/N=C/c1cc(C)n(-c2ccc(Br)cc2)c1C
(51) N#Cc1ccc2ccn(CC(=O)NC3CCCCCC3)c2c1
(46) O=C(Cn1cc([N+](=O)[O-])cn1)NCCc1c[nH]c2ccccc12
(43) COc1ccc(/C=C/C(=O)OCC(=O)NC2CCCC2)cc1OC
Screen / compound no.	50	51	46	43
SARS PLpro yeast	-2%	3%	1%	-7%
RE007 growth inh	5%	4%	21%	2%
2A StopGo	14%	-3%	-8%	-6%
Cruzain noTriton	.	4%	.	.
NS1 inh	-5%	1%	.	.
Lassa entry inh	-29%	-1%	-10%	1%
MARV entry inh	?	?	14%[46.1 µM]	-1%
Cruzain inh Det	.	-4.9%	.	.

No enrichment for hits, and some 4.6% of all compounds hit somewhere here.
